# Screening data as filed in PubChem BioAssay.
# PKD1 kinase inh – inhibitors of human PKD1 kinase; actives 0.056% (n = 200,000); inhibition, %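 (about 10 µM by stock and volumes)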; Q15139; PKD1 kinase fluorescence polarization assay; AID 797;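 active = inhibition of 50% or more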;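 note: controls were vehicle for no effect and a reference inhibitor for full effect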
# INS promoter inh – TRM-6 insulin promoter activity inhibition | TRM-6 cells (human fetal islet line), insulin promoter-eGFP reporter, imaging; reporter expression induced with tamoxifen | inhibition, % at 2 µM | actives 0.9% (n = 130,000) | AID 1273;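 active = inhibition above the mean plus 3 SD, with well images judged a real hit on visual review, cut at about 60% in these data, passing the limit was not always enough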
# RGS16-Gao HTS – modulates binding between human RGS16 and Galphao | binding response (% of control), % at 10 µM | actives 0.38% (n = 220,000) | bead-based flow cytometry RGS16-Galphao binding, fluorescence; actives lie on both sides | O15492+P09471;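 active = below 25% or above 175%, edge rows of some plates excepted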;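 note: Galphao activated by GDP with aluminum fluoride before binding; 100% = wells without compound and 0% = beads without RGS; some results beyond the cut were filed as inactive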
# Target sequence (O15492 whole entry, looked up): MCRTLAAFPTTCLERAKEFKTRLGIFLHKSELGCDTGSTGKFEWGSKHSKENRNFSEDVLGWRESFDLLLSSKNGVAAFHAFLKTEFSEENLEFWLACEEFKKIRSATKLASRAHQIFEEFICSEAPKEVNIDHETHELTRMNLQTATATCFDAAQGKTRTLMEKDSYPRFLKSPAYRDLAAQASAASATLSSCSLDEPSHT
# Target sequence (P09471 whole entry, looked up): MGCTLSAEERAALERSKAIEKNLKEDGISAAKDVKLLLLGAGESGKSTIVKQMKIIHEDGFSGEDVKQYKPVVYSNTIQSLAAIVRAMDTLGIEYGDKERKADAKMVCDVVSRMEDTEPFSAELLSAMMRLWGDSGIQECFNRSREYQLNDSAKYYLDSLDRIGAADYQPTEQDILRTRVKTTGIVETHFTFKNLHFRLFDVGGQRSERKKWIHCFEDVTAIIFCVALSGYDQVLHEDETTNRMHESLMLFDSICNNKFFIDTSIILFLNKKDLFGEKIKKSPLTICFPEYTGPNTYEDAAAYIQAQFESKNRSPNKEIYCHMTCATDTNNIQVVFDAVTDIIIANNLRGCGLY
# HSV replic up – increases HSV replication in cells; HSV replication augmentation in cells, fold increase; maximum fold increase; actives 0.005% (n = 220,000);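 active = peak rise of 1.5-fold or more in the series; tested in PC3 cells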;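 note: first round at 10 µM; read as green reporter fluorescence; hits show the peak of a series up to 25 µM; 1 = signal of infected wells without compound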
# GALR2 agonist – activates the human galanin receptor 2; GALR2-expressing cells, agonist activation read-out; activation, %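 (tested at 5 µM)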; AID 803; O43603; actives 0.48% (n = 140,000);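 active = above mean plus 3 SD of all compounds, about 5% in these data, not always enough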;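 note: 0% = vehicle buffer wells and 100% = reference agonist at full effect; tested in CHO reporter cells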
# Target sequence (O43603 whole entry, looked up): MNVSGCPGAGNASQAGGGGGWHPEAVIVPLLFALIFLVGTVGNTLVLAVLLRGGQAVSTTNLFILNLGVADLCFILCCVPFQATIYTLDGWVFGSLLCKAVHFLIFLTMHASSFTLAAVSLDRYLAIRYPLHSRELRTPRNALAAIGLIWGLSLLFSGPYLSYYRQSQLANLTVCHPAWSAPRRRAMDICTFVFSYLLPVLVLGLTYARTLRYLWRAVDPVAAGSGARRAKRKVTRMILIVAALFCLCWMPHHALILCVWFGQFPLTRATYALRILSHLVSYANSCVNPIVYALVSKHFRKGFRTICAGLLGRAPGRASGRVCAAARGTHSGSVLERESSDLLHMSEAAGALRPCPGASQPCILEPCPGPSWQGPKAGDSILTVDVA
# INS promoter inh cell count – second read-out of INS promoter inh, no call of its own (marks repeat the call); normalized cell count, %; measured here: cell count, toxicity; reference of the scale not given here;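 cells exposed to compound for 48 h; stained nuclei by imaging scaled within each plate; lower means fewer cells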
# HSV replic up primary fold – second read-out of HSV replic up, no call of its own (marks repeat the call); fold increase; compound at 10 µM; measured here: primary screen fold increase 10 uM; tested in PC3 cells;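 GFP signal in the first replicate; 1 = infected wells without compound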
# Active calls of the source: *; i = inactive; · = not tested or not shown.
# The first two records, ahead of the listing:
SMILES,PKD1 kinase inh,INS promoter inh,INS promoter inh cell count,RGS16-Gao HTS,HSV replic up,HSV replic up primary fold,GALR2 agonist
NS(=O)(=O)c1ccc(CCN=C(NS(=O)(=O)c2cccs2)c2ccccc2)cc1,-6.3,·,·,98.6,i,0.91,·
Cn1c(=O)c2c(nc(CN3CCc4ccccc4C3)n2Cc2ccccc2)n(C)c1=O,-4.8,43.8,171.3,·,i,1.02,0.0

# This part in full (from the top)
SMILES,PKD1 kinase inh,INS promoter inh,INS promoter inh cell count,RGS16-Gao HTS,HSV replic up,HSV replic up primary fold,GALR2 agonist
NS(=O)(=O)c1ccc(CCN=C(NS(=O)(=O)c2cccs2)c2ccccc2)cc1,-6.3,·,·,98.6,i,0.91,·
Cn1c(=O)c2c(nc(CN3CCc4ccccc4C3)n2Cc2ccccc2)n(C)c1=O,-4.8,43.8,171.3,·,i,1.02,0.0
CSc1ncnc2c1cnn2-c1ccc(C)cc1C,1.3,30.8,65.3,95.9,i,1.06,·
CC1CC(C)CN(C(=O)C(NS(=O)(=O)c2ccc(Br)s2)c2ccccc2)C1 (configuration not stated),-10.5,-14.8,70.7,102.5,i,0.92,-0.8
C/C(=N\NC(=O)c1ccc(Cl)c(Cl)c1)c1ccc(Br)s1,-10.3,·,·,102.3,i,0.73,-2.0
Cc1nc(N[C@@H](Cc2c[nH]c3ccccc23)C(=O)O)c2oc3ccccc3c2n1,-1.7,22.2,108.0,105.8,·,·,-3.9
CCOC(=O)N1CCN(C(=O)c2c(O)c3cccc4c3n(c2=O)CC4)CC1,-7.4,·,·,103.3,i,0.913,-0.7
O=C(Nc1ccccc1)Nc1cccc(C(F)(F)F)c1,-9.8,20.0,100.5,85.1,i,0.85,·
CN1/C(=C/C(=O)C2CCC2)Sc2ccccc21,5.5,-32.3,119.3,77.9,i,0.97,-0.9
COC(=O)c1sccc1NC(=O)c1cc(OC)cc(OC)c1,-3.4,-96.5,88.3,84.0,i,1.1,-0.2
N#CC1=C(N)C2=C(N3CCCCC3)CCCC2C1(C#N)C#N (configuration not stated),-8.1,5.6,88.9,117.7,i,1.11,-1.6
CC(=O)Cn1c(C(F)(F)F)nc2ccccc21,-7.3,-11.1,91.3,96.7,i,0.97,-1.0
Cc1ccc(NC(=O)CN2C(=O)CN(C)C2=O)cc1S(=O)(=O)N1CCCCC1,-5.4,-20.0,85.0,99.7,i,1.02,·
COc1cccc(C(=O)OCC(=O)NC(=O)NC2CCCC2)c1O,-4.5,66.7,81.7,103.7,i,0.91,·
O=C(O)CCCC(=O)Nc1ccccc1C(=O)N1CCOCC1,-10.6,·,·,100.0,i,0.95,·
CC1CCCCC1NC(=O)CO/N=C/c1ccccc1OC(F)F (configuration not stated),-4.7,-16.7,87.8,101.8,i,1.07,0.5
COc1ccc(-c2ccc([C@H]3[C@@H]4C=CCC[C@@]4(C)C(=O)N3Cc3ccccc3)c(F)c2)cc1,·,·,·,102.2,i,0.97,·
NC(=O)C1CCN(CCCNC2CC(=O)N(Cc3ccc(N4CCCC4=O)cc3)C2=O)CC1 (configuration not stated),-12.6,·,·,·,i,1.12,-1.7
COC(=O)C1=C(C)NC(C)=C(C(=O)OC)C1C1CC=CCC1 (configuration not stated),-5.5,·,·,101.0,i,0.92,-0.8
Cc1ccc(C(=O)N2Cc3ccccc3CC2C(=O)O)cc1 (configuration not stated),-8.2,·,·,102.4,i,0.98,-0.2

# 3 entries already listed, ordered by length of the SMILES, low to high:
SMILES,PKD1 kinase inh,INS promoter inh,INS promoter inh cell count,RGS16-Gao HTS,HSV replic up,HSV replic up primary fold,GALR2 agonist
COC(=O)C1=C(C)NC(C)=C(C(=O)OC)C1C1CC=CCC1 (configuration not stated),-5.5,·,·,101.0,i,0.92,-0.8
CC1CC(C)CN(C(=O)C(NS(=O)(=O)c2ccc(Br)s2)c2ccccc2)C1 (configuration not stated),-10.5,-14.8,70.7,102.5,i,0.92,-0.8
NS(=O)(=O)c1ccc(CCN=C(NS(=O)(=O)c2cccs2)c2ccccc2)cc1,-6.3,·,·,98.6,i,0.91,·

# The list continues.
SMILES,PKD1 kinase inh,INS promoter inh,INS promoter inh cell count,RGS16-Gao HTS,HSV replic up,HSV replic up primary fold,GALR2 agonist
O=C(CO/N=C/c1cccc([N+](=O)[O-])c1)NC1CCCCC1,-12.6,21.9,134.5,94.8,i,1,-0.6
O=C1CC(C(=O)Nc2ccc(Br)cc2)C2(CCCC2)O1 (configuration not stated),-3.5,25.0,108.1,105.8,·,·,-0.4
CCn1c(COc2ccccc2)nnc1SCC(=O)NCc1ccco1,-7.9,·,·,102.2,i,0.95,·
CCCCC(=O)Nc1cc(Cl)ccc1C(=O)O,1.9,·,·,102.5,i,0.91,·
C/C(=N\NC(=O)COc1ccccc1-c1ccccc1)c1ccccn1,-4.3,·,·,101.0,i,0.67,·
CNC(=S)Nc1cccc(C(=O)O)c1,14.0,-11.8,122.9,102.7,i,0.97,·
Cc1ccc(Nc2nc3nonc3nc2N(C)C)cc1,-9.6,·,·,100.8,i,1.02,-0.5
C=CCn1c(Oc2cccc(C)c2)nc2c1c(=O)n(C)c(=O)n2C,7.8,0.0,87.5,99.7,i,0.85,·
Cc1c(C(=O)NCc2cccnc2)oc2ccc(S(=O)(=O)N3CC(C)CC(C)C3)cc12 (configuration not stated),-14.1,40.0,97.8,111.6,·,·,-0.8
O=C(COC(=O)/C=C/c1cccc([N+](=O)[O-])c1)NCC1CCCO1 (configuration not stated),4.9,46.7,192.6,101.0,i,0.93,·
C/C=C(/C)C(=O)Nc1cccc(C2=NOC3(C2)C[C@@H](C(N)=O)N(C(=O)C2(C)CC2)C3)c1 (some centres not stated),·,·,·,102.2,i,0.76,·
CCn1c(NC(=O)C(C)C)c(-c2cccs2)c(=O)c2ccccc21,·,·,·,99.9,i,1.17,·
O=C(O)CC(SCC(=O)Nc1ccccc1)C(=O)O (configuration not stated),-7.9,·,·,98.7,i,1.01,·
COC(=O)c1sc2cc(C(F)(F)F)cnc2c1-c1cccnc1,-12.3,56.7,96.9,105.0,i,0.77,-1.0
COc1cc2cc(Br)cc(Br)c2nc1C,7.7,45.8,114.2,101.2,i,0.827,4.2
Cn1c(-c2cccc(OCc3ccccc3)c2)nc2c1c(=O)[nH]c(=O)n2Cc1ccccc1,3.7,-1.8,139.2,99.9,i,0.96,-1.2
O=C(CC1SC(=O)N(c2ccccc2)C1=O)Nc1ccccc1 (configuration not stated),2.6,·,·,102.1,i,1.12,-1.1
CCCC(=O)Nc1ccc(NC(=O)C23CC4CC(CC(C4)C2)C3)cn1,1.6,-21.4,178.1,29.5,i,0.91,-0.2
CN(C)N1C(=O)CC(NNC(=O)c2ccncc2)C1=O (configuration not stated),-6.6,12.5,90.6,34.3,i,0.97,-0.6
CCOc1ccc2nc(SCC(=O)NC(=O)NCc3ccco3)sc2c1,0.7,2.3,43.3,101.5,i,1.1,-3.2
CCOC(=O)c1sc2nc(SCC(=O)NCc3ccco3)n(Cc3ccccc3)c(=O)c2c1C,-8.1,·,·,99.8,i,0.82,-1.0
O=C(C1=NN[C@@H]2C(=O)N(c3ccccc3C(F)(F)F)C(=O)[C@H]12)c1cnccn1,·,·,·,104.8,i,1.03,·
Cc1cccc(N2CCN(C(c3ccc(N(C)C)cc3)c3nnnn3C(C)(C)C)CC2)c1C (configuration not stated),1.7,-6.7,95.7,109.4,i,1.01,-1.5
O=C1CSC(c2ccc(F)cc2)N1c1nc2ccccc2s1 (configuration not stated),0.1,-10.3,142.5,104.3,i,1.03,-1.1
COc1cccc2cc(C(=O)N3CCN(c4ncccn4)CC3)c(=O)oc12,-1.7,33.3,138.9,102.3,i,1.09,0.0
CCc1ccc(NC(=S)NCC2CCCN2CC)cc1 (configuration not stated),-3.8,-5.9,78.9,99.1,i,1.11,·
COc1ccc(NC(=O)c2ccc(CN3CCN(c4ccccc4)CC3)cc2)cc1,-4.0,-25.0,86.2,104.7,i,0.94,-0.5
CCCCNc1nc(=S)[nH]c2cc(OC)c(OC)cc12,-9.2,60.0,71.8,98.2,i,0.9,-0.5
CC(C)(C)N1CC(c2nc3ccccc3n2CCOc2ccccc2)CC1=O (configuration not stated),-2.1,13.3,31.8,97.9,i,1.02,-4.5
CCOc1ccc(-c2cc(C(=O)NN)[nH]n2)cc1,-5.5,·,·,103.2,·,·,-1.1
Oc1ccc(/C=N/Nc2nccnc2Cl)c(O)c1,-0.7,·,·,87.7,i,0.61,-3.1
CCn1cc(C(=O)NCC(C)C)c(=O)c2cc(F)c(N3CCN(C)CC3)cc21,·,·,·,96.0,i,0.73,·
COC(=O)C(C(=O)OC)c1ccc(NC(=O)c2cccc(Cl)c2)cc1,6.5,16.7,115.1,101.3,i,1.09,·
CCOC(=O)C1(CC)NC(c2cccc(F)c2)C2C(=O)N(CC)C(=O)C21 (configuration not stated),-12.6,5.3,47.7,102.3,i,0.98,1.8
COc1cc(C)c(CN2CCCCC2CO)cc1C (configuration not stated),8.0,9.1,82.7,101.3,i,0.96,-1.5
COc1ccccc1OCCSc1ncnc2nc[nH]c12,-2.6,26.9,113.3,100.2,i,1.03,-1.2
COc1ccc(CC(=O)NNc2ncnc3c2cnn3C)cc1OC,-1.4,-24.2,84.0,104.6,i,0.97,-0.4
O=C1CC(c2ccccc2)CC(O)=C1C=Nc1ccc(O)cc1 (configuration not stated),-0.9,-26.3,85.3,102.1,i,1.17,·
O=C(Nc1ccccc1-c1ccccc1)c1cccc([N+](=O)[O-])c1,-6.2,-29.4,60.3,99.0,i,1,-0.7
O=C(NC1CCCCC1)N(Cc1cc2cc3c(cc2[nH]c1=O)OCCO3)CC1CCCO1 (configuration not stated),7.4,·,·,101.7,i,0.9,0.5

# Next section; it opens with the four that closed the last part.
SMILES,PKD1 kinase inh,INS promoter inh,INS promoter inh cell count,RGS16-Gao HTS,HSV replic up,HSV replic up primary fold,GALR2 agonist
COc1ccc(CC(=O)NNc2ncnc3c2cnn3C)cc1OC,-1.4,-24.2,84.0,104.6,i,0.97,-0.4
O=C1CC(c2ccccc2)CC(O)=C1C=Nc1ccc(O)cc1 (configuration not stated),-0.9,-26.3,85.3,102.1,i,1.17,·
O=C(Nc1ccccc1-c1ccccc1)c1cccc([N+](=O)[O-])c1,-6.2,-29.4,60.3,99.0,i,1,-0.7
O=C(NC1CCCCC1)N(Cc1cc2cc3c(cc2[nH]c1=O)OCCO3)CC1CCCO1 (configuration not stated),7.4,·,·,101.7,i,0.9,0.5
COc1ccc(CCC(=O)N2CCN(S(=O)(=O)c3ccc4ccccc4c3)CC2)cc1,-15.5,-35.9,150.6,104.3,i,0.96,0.3
Cc1ccc(CNC(=O)CCCC(=O)Nc2cc(C)on2)cc1,-2.5,·,·,105.9,i,1.03,·
Nc1c(Cl)cnc(C(Cl)(Cl)Cl)c1Cl,0.6,·,·,103.1,i,0.98,·
O=C1N/C(=C/c2ccc(N3CCOCC3)o2)C(=O)N1c1cccc(Cl)c1,-7.3,-100.0,30.3,80.2,i,0.65,·
CCOC(=O)C1CCCN(CCC(=O)Nc2ccc(F)c(F)c2)C1 (configuration not stated),2.2,·,·,109.1,i,1.05,-0.4
CCCc1c(O)nc(SC2CC(=O)N(c3cc(OC)ccc3OC)C2=O)[nH]c1=O (configuration not stated),1.6,·,·,102.5,i,0.86,-1.5
CCOC(=O)Cn1c(=O)oc2cc(S(=O)(=O)N(C)c3cccc(C)c3)ccc21,·,·,·,100.1,i,1.03,·
COc1ccc(NC(=O)COc2nc3ccccc3nc2N2CCOCC2)c(OC)c1,-8.6,·,·,121.0,i,0.84,·
O=C(NC1Cc2ccccc2C1)c1cc(COc2ccc(F)cc2Cl)on1,-3.4,·,·,104.4,i,0.97,·
CCOC(=O)c1cn(CC(=O)Nc2cccc(Cl)c2)nn1,-0.5,36.4,131.6,114.3,i,0.89,·
CC(NC(=O)CC1SC(N)=NC1=O)c1ccccc1 (configuration not stated),-4.7,·,·,47.4,i,0.91,·
Cc1ccc(CN(Cc2cccnc2)C(=O)CN2C(=O)COc3ccccc32)o1,-7.4,·,·,93.7,i,1.21,0.5
Cc1nn(-c2ccccc2)c(C)c1CN,-1.0,45.5,121.0,103.9,i,1.03,·
